Compound activity (PubChem BioAssay)
Cruzain inh noDet: qHTS Assay for Promiscuous and Specific Inhibitors of Cruzain (without detergent). Potency, µM, for the others: max response, negative = inhibition, actives largely listed as inhibitors. Cruzipain (Trypanosoma cruzi), P25779. purified cruzain, Z-FR-AMC fluorescence, no detergent. 200,000 tested, 2.3% active;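 note: plate controls were enzyme without inhibitor for no effect and buffer without enzyme for full effect; nearly all actives have a fitted effect of over 40% in size; top concentration of the series not given in the record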
Target sequence (P25779 123-467 limits assumed): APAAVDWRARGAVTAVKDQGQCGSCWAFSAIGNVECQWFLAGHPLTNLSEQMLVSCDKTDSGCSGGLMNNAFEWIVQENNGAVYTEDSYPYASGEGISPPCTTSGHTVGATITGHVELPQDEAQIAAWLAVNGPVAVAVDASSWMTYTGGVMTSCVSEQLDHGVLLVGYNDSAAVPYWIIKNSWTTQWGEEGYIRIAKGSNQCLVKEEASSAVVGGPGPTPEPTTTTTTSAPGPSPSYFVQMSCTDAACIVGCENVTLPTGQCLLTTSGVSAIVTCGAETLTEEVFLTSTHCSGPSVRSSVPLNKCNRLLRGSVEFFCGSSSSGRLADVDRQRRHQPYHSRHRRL
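Purified cruzain at 1.5 nM, pre-incubated 15 min with compound at room temperature in 100 mM sodium acetate pH 5.5, 5 mM DTT, 0.00005% Triton X-100. Reaction started with 2 uM Z-FR-AMC; AMC fluorescence increase over 60 s gives rate.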
SARS PLP yeast: qHTS of Yeast-based Assay for SARS-CoV PLP | AID 485353, 2010 | Potency, µM (titrated, usually from 32.9 µM), without a hit: at the top dose activity, positive = growth rescue | 330,000 tested, 0.19% active | S. cerevisiae expressing SARS-CoV PLpro, growth rescue; control for the full effect not named in the record; active means well fitted rising curve with a large enough effect; inconclusive means small, poorly fitted or top-dose-only effect; inactive means no such curve, though single readings can be large or run the other way; note: 0% is about no effect; nearly all actives have a fitted effect of over 55% in size; growth read by luminescence after 48 h
Cruzain inh Det: qHTS Assay for Promiscuous and Specific Inhibitors of Cruzain (with detergent); Cruzipain (Trypanosoma cruzi), P25779; purified cruzain, Z-FR-AMC fluorescence, 0.01% Triton; Potency, µM, for inactives: max response, negative = inhibition, hits mostly inhibitors; 200,000 tested, 0.43% active; AID 1478, 2009;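 note: plate controls were neutral wells for no effect and buffer without enzyme for full effect; nearly all actives have a fitted effect of over 40% in size; top concentration of the series not given in the record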
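Detergent-containing run (0.01% Triton X-100) in acetate buffer pH 5.5 with 5 mM DTT: enzyme at 1.5 nM final, 15 min compound preincubation at room temperature, then 2 uM Z-FR-AMC substrate. Activity taken as 60 s fluorescence increase at 360/450 nm.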
RE007 growth inh: qHTS Assay for Inhibitors of the HIV-1 protein Vpr | S. pombe RE007 Vpr strain, BacTiter-Glo ATP luminescence, 24 h; control for the full effect not named in the record | 360,000 tested, 0.21% active | AID 651644, 2012 | Potency, µM (top dose mostly 92.2 µM), without a hit: top-dose activity change, negative = less growth; active = well fitted falling curve with a large enough effect; inconclusive = small, poorly fitted or top-dose-only effect; inactive = no such curve, though single readings can be large or run the other way;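 note: % is set by controls: 0 for no effect and ±100 for the full control effect; nearly all actives have a fitted effect of over 50% in size; the assay follows cell death caused by Vpr and the record does not say whether a fall means rescue or toxicity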
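Fission yeast strain RE007, carrying one chromosomally integrated HIV-1 vpr copy, was seeded at OD 0.01 in PMG+AL medium with 23 nL pinned compound. After 24 h at 30 °C and 99% humidity, viability was read by BacTiter-Glo luminescence.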
Lassa entry inh: qHTS for Inhibitors of binding or entry into cells for Lassa Virus. Lassa virus pseudotype entry inhibition, cell reporter; control for the full effect not named in the record. Potency, µM (series often up to 37.9 µM), without a hit: top-dose activity change, negative = inhibition, hits mostly inhibitors. 300,000 tested, 1.2% active. AID 540256, 2011; active means well fitted inhibition curve with a large enough effect; inconclusive means small, poorly fitted or top-dose-only effect, or effect the other way; inactive means flat fitted curve, though single readings scatter; tested in HEK293 cells; note: % is set by controls: 0 for no effect and ±100 for the full control effect; nearly all actives have a fitted effect of over 50% in size; luciferase read-out
NS1 inh: qHTS Assay for Inhibitors of Influenza NS1 Protein Function. S. cerevisiae slowed by influenza A NS1, growth recovery by OD600. Potency, µM (top dose mostly 46.1 µM), for the others: at the highest dose activity, positive = more growth. 270,000 tested, 0.4% active. AID 2326, 2010; active means well fitted rising curve with a large enough effect; inconclusive means small, poorly fitted or top-dose-only effect; inactive means no such curve, though single readings can be large or run the other way; note: nearly all actives have a fitted effect of over 50% in size
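OD600 was taken as the measure of yeast growth restored by compound in an NS1-expressing S. cerevisiae strain. Cells had been washed out of glucose medium and diluted 1:100 into galactose -URA medium, pH 6.0.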
StopGo reporter: High Throughput Screening for Foot and Mouth Disease Virus Antivirals. human cells with a luciferase reporter of 2A StopGo recoding; control for the full effect not named in the record. Potency, µM (highest dose often 57.9 µM), for inactives: at the top dose signal change, negative = less light. 410,000 tested, 1.2% active. AID 1159524, 2015; active = well fitted falling curve with a large enough effect; inconclusive = small, poorly fitted or top-dose-only effect; inactive = no such curve, though single readings can be large or run the other way; tested in HEK293T cells; note: % is set by controls: 0 for no effect and ±100 for the full control effect; nearly all actives have a fitted effect of over 45% in size; luciferase light after 4 h
Marburg entry inh: qHTS for inhibitors of binding or entry into cells for Marburg Virus; Marburg virus pseudotyped entry inhibition, cell reporter; control for the full effect not named in the record; about a third of the inactives were read at about 46 µM; Potency, µM (top dose mostly 37.8 µM), for the others: at the highest dose activity change, negative = inhibition, most hits filed as inhibitors; 300,000 tested, 1.8% active; AID 540276, 2011; active = well fitted inhibition curve with a large enough effect; inconclusive = small, poorly fitted or top-dose-only effect, or effect the other way; inactive = flat fitted curve, though single readings scatter; tested in HEK293 cells; about a fifth of its hits are not listed in these tables; note: % is set by controls: 0 for no effect and ±100 for the full control effect; luciferase read-out
* hit, by the source's call; ? = inconclusive; · = not tested or not shown; [ ] = dose if it differs, or a comment. Unless noted, calls come from the whole dose curve; as a rule, active = well fitted curve in the direction sought with a large enough effect; inconclusive = small, poorly fitted or top-dose-only effect, or another doubt; inactive = no such curve, though single readings can be large; an effect the other way counts as inactive or inconclusive. Potency is the fitted concentration of half-maximal effect. An unsorted share of the library, and some 4.5% of all compounds hit somewhere here.

Every second line gives: Cruzain inh noDet, SARS PLP yeast, Cruzain inh Det, RE007 growth inh, Lassa entry inh, NS1 inh, StopGo reporter, Marburg entry inh
- CCCCCCNC(=O)CSc1nccn1Cc1ccccc1
    2.6%, -0.5%, 2.0%, -2.9%, -14.3%, -82.4%, ·, -0.4%
- CC(C)Oc1ccccc1C1C=C(C(=O)O)Nc2ncnn21 (stereo not given)
    -6.5%, ·, 1.8%, ·, 14.2%[46.1 µM], ·, 0.0%, 18.4%[46.1 µM]
- Cc1c(NC(=O)CCSCCc2ccccn2)cccc1[N+](=O)[O-]
    ·, 1.1%, ·, 1.9%, -0.9%[46.1 µM], ·, -8.3%, -9.8%[46.1 µM]
- Cc1cc(/C=C2/C(=O)NN(c3ccccc3)C2=O)c(C)n1-c1cccc(O)c1
    25.1µM*, -15.2%, -14.3%, -1.1%, 3.98µM*, 2.2%, 44.7µM*, ?
- N#Cc1ccccc1COC(=O)CCCC1=NS(=O)(=O)c2ccccc2N1
    ·, -1.6%, ·, 7.3%, ·, -1.4%, -5.5%, ·
- CCN(CC)S(=O)(=O)c1ccc(/C=C/C(=O)OCC(=O)Nc2cccc3ccccc23)cc1
    -10.5%, -0.5%, -2.3%, 2.4%, 2.0%, 2.5%, -19.1%, -23.8%
- COc1ccc(-c2c(C)nn3c(N4CCN(c5cc(Cl)ccc5C)CC4)cc(C)nc23)cc1OC
    -3.8%, ·, 1.5%, ·, -0.9%[46.1 µM], ·, -4.0%, -2.0%[46.1 µM]
- CCOC(=O)c1sc(NC(=O)c2ccc(C)o2)nc1C
    4.9%, -15.3%, -2.1%, ?, ?, -48.4%, 0.1%, -3.3%
- C/C(N)=C(/C#N)C(=O)COC(=O)c1cccc(C)c1O
    ·, -0.3%, ·, -5.2%, ·, -2.8%, 22.4%, ·
- CN(C)CCN(C(=O)C1CCN(S(=O)(=O)c2cccs2)CC1)c1nc2c(F)cccc2s1
    ·, 4.5%, ·, -4.0%, 7.6%[46.1 µM], ·, 13.4%, 1.1%
- COc1ccc(CC(=O)N(CC2CCCO2)c2nc3ccccc3s2)cc1 (stereo not given)
    0.6%, -9.5%, -6.4%, -7.2%, 7.4%, -2.2%, 19.1%, ?
- CCOC(=O)c1c(C)[nH]c(C(C)=NNC(=O)c2cccs2)c1C
    ·, -2.9%, ·, 11.6%, ?, ·, 19.8%, ?
- Cc1nc2nncn2c(NCc2ccc(Cl)cc2)c1C
    -0.9%, ·, 1.1%, ·, -3.3%[46.1 µM], ·, -14.9%, ?
- O=C(NCc1ccccc1)c1ccc2c(c1)sc1nc(-c3ccc(F)cc3)cn12
    -4.4%, ·, -1.3%, ·, 7.8%[46.1 µM], ·, -1.5%, ·
- CN(C(=O)CCNC(=O)Cn1ccc2ccccc2c1=O)c1ccc(Br)cc1
    ·, 4.2%, ·, 4.9%, -16.1%[46.1 µM], 13.5%, 23.2%, 23.6%[46.1 µM]

An excerpt of these results, comma-delimited:
canonical_smiles,Cruzain inh noDet,SARS PLP yeast,Cruzain inh Det,RE007 growth inh,Lassa entry inh,NS1 inh,StopGo reporter,Marburg entry inh
Cc1c(NC(=O)CCSCCc2ccccn2)cccc1[N+](=O)[O-],·,1.1%,·,1.9%,-0.9%[46.1 µM],·,-8.3%,-9.8%[46.1 µM]
CN(C)CCN(C(=O)C1CCN(S(=O)(=O)c2cccs2)CC1)c1nc2c(F)cccc2s1,·,4.5%,·,-4.0%,7.6%[46.1 µM],·,13.4%,1.1%

Continuation.
Every second line gives: Cruzain inh noDet, SARS PLP yeast, Cruzain inh Det, RE007 growth inh, Lassa entry inh, NS1 inh, StopGo reporter, Marburg entry inh
- CC1(C)Cc2c(cnn2-c2ccc(F)cc2)C(NC(=O)CCC(F)(F)F)C1 (stereo not given)
    ·, 5.3%, ·, 0.1%, ?, -13.0%, 4.5%, ?
- CCOC(=O)N1CCC(NC(=O)c2cc(C(=O)Nc3cccc(OC)c3)ccc2CO)CC1
    28.4%, 5.3%, -3.0%, 16.9%, 0.8%, -5.0%, -16.8%, 15.5%
- C1=C(N2CCOCC2)/C(=C/c2nc3ccccc3[nH]2)CC1
    3.0%, 22.2%, -6.2%, -17.2%, 17.0%, 3.98µM*, -17.6%, 0.6%
- Cc1noc(C)c1COc1ccccc1C(=O)Nc1cccc(S(=O)(=O)N(C)C)c1
    ·, -1.3%, ·, 17.7%, 0.0%, ·, -21.1%, -16.6%
- Brc1ccccc1-c1nnc(CSc2nnnn2-c2ccccc2)o1
    -5.7%, -9.5%, -4.9%, -16.6%, 17.7%, -75.5%, ·, 21.6%
- COc1cccc(CNC(=O)CCC2CCCN(Cc3cc(Cl)ccc3O)C2)c1 (stereo not given)
    ·, 0.2%, ·, 3.4%, ?, 1.6%, -11.1%, 7.8%[46.1 µM]
- NC(=O)NC(=O)CSc1nc(-c2ccccc2)c(-c2ccccc2)n1CC1CCCO1 (stereo not given)
    2.3%, 2.1%, 0.7%, 2.9%, ?, -12.8%, -15.7%, 4.8%
- Cc1cccc(C(=O)N/C(=C/c2ccco2)C(=O)N2CCCCCC2)c1
    ·, -1.2%, ·, 0.4%, -11.0%[46.1 µM], 21.9%, 1.2%, 17.6%[46.1 µM]
- O=C(O)Cn1cc(/C=c2/sc3nc4ccccc4n3c2=O)c2ccccc21
    ·, -2.7%, ·, 9.1%, ?, ·, 63.9%[activator], ?
- O=C(CN1CCN(c2ccccc2O)CC1)Nc1ccc([N+](=O)[O-])cc1Br
    ·, -2.2%, ·, -2.1%, ?, ·, -20.8%, -19.5%
- COc1ccccc1CNS(=O)(=O)c1c(C)[nH]c(=O)[nH]c1=O
    -6.4%, 5.6%, 13.2%, -3.0%, -0.3%, -5.2%, ·, 0.6%
- COc1ccc2c(=O)c3ccccc3oc2c1
    ·, -10.6%, ·, -9.1%, ·, -38.8%, 59.9%[activator], ·
- COc1ccccc1CCNC(=O)Cc1c(C)c2c(cc(C)c3c(C)c(C)oc32)oc1=O
    13.3%, ·, 1.2%, ·, 11.8%[46.1 µM], ·, -10.8%, ?
- CSc1nc(SCC(=O)NCc2ccco2)c2c3c(sc2n1)CN(C)CC3
    ·, ·, ·, -13.1%, 8.0%, 26.5%, -4.8%, -1.4%
- CCCN(CCC)C(=O)CCS(=O)(=O)c1cccc2nsnc12
    6.2%, -1.7%, 11.1%, 23.0%, 0.3%, -3.8%, 1.2%, 13.5%
- Cc1ccc(C(=O)Nc2ccc(-c3nc4ccccc4s3)c(O)c2)c(C)c1
    3.9%, ·, -0.8%, ·, 19.3%[46.1 µM], ·, 13.1%, ·
- CN(C)C(=O)c1ccc(NC(=O)CN2CCc3cc4c(cc3C2)OCCCO4)cc1
    ·, -1.4%, ·, 7.4%, 1.0%[46.1 µM], -6.6%, 12.2%, ?

Rewritten tab-delimited: part of the list above
compound	Cruzain inh noDet	SARS PLP yeast	Cruzain inh Det	RE007 growth inh	Lassa entry inh	NS1 inh	StopGo reporter	Marburg entry inh
CCOC(=O)N1CCC(NC(=O)c2cc(C(=O)Nc3cccc(OC)c3)ccc2CO)CC1	28.4%	5.3%	-3.0%	16.9%	0.8%	-5.0%	-16.8%	15.5%
COc1ccccc1CNS(=O)(=O)c1c(C)[nH]c(=O)[nH]c1=O	-6.4%	5.6%	13.2%	-3.0%	-0.3%	-5.2%	·	0.6%
Cc1noc(C)c1COc1ccccc1C(=O)Nc1cccc(S(=O)(=O)N(C)C)c1	·	-1.3%	·	17.7%	0.0%	·	-21.1%	-16.6%
